CtBP-E1A blk – qHTS Assay for Inhibitors of the CtBP/E1A Interaction; CtBP / adenovirus E1A interaction (AlphaScreen); AID 651724, 2012; 0.49% of 340,000 active; activity change, % (test concentration not listed); AlphaScreen GST-E1A/His-CtBP binding, 1536-well; hits give low values; control for the full effect not named in the record; in the data active means activity change below about -65%; inconclusive means about -30% to -65%; inactive means above about -30%; further: on the % scale 0 is the no-effect control and ±100 the full control effect; compound concentration not given in the record
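AlphaScreen with 125 nM GST-E1A and 125 nM His-CtBP (5X stocks) in Tris pH 8.0, 300 mM NaCl, BSA, Tween 20, TCEP. Compounds preincubated 2 h at 37 deg C, then glutathione donor/nickel acceptor beads added for 1 h at 37 deg C in dark.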
TRPML1 blocker – qHTS for Inhibitors of the Human Mucolipin Transient Receptor Potential 1 (TRPML1). TRPML1-inducible cells, Ca2+ dye fluorescence, FDSS; hits give low values; inhibition of EC80 agonist-evoked calcium signal. activity change, negative = inhibition, % (concentration not given with the values). 0.02% of 390,000 active; in the data active means activity change below about -50%; inconclusive means about -30% to -50%; inactive means above about -30%;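 further: stimulus is agonist 54-4 at its EC80 concentration; on the % scale 0 is the no-effect control and ±100 the full control effect; compound concentration not given in the record; the text of the record puts the active cut at -80%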
Target sequence (Q9GZU1 whole entry, looked up): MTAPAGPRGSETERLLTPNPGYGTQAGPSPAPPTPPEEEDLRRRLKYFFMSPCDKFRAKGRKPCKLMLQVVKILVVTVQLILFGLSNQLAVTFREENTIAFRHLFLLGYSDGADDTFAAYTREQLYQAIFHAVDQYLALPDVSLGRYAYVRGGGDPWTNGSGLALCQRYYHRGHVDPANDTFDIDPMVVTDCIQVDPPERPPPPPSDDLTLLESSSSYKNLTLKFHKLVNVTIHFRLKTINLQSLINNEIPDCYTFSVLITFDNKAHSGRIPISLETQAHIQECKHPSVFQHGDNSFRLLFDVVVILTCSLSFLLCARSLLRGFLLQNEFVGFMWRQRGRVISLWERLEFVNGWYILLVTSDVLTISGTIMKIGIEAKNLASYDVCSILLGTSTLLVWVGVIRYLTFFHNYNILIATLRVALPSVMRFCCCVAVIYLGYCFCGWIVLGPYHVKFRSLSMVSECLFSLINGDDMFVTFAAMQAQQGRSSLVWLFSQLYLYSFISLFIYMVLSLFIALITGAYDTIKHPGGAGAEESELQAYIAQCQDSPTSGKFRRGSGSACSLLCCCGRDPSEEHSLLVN
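TRPML1-DL cells, Tet-induced overnight (~16 h, 37 °C) at 1,500 cells/well, were loaded with Ca8 no-wash dye plus quencher for 45-90 min at room temperature. Compounds were pinned during FDSS kinetic reading; agonist 54-4 at EC80 (4 uM final) then added.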
PINK1 expr mod – A Quantitative High throughput Screen to Identify Chemical Modulators of PINK1 Expression; AID 624263, 2012; PINK1 immunofluorescence, high-content cytometry, 24 h; Potency, µM (titrated, usually from 76.6 µM), for inactives: at the top dose activation (PINK1 increase), hits mostly activators; 0.2% of 410,000 active; active = well fitted activation curve with a large enough effect; inconclusive = small, poorly fitted or top-dose-only effect; inactive = flat fitted curve, though single readings scatter; cell line not stated here;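 further: potency means the concentration at half of the fitted maximal effect; % of control where 0% means no effect; nearly all actives have a fitted effect of over 65% in size; a mitochondrial uncoupler was the plate control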
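Stable cell line treated 24 h with compounds at 5 concentrations (CCCP controls), then fixed and immunostained for PINK1 plus nuclear and cell stains; PINK1 immunofluorescence quantified by laser-scanning microplate cytometry.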
D2 ag – Beta-Arrestin HTS for Positive Allosteric Modulators of the Human D2 Dopamine Receptor: Agonists | 0.084% of 360,000 active | DiscoveRx PathHunter D2 beta-arrestin, luminescence, 90 min; 100% = 57 uM dopamine signal | D(2) dopamine receptor (Homo sapiens), P14416 | activation, % (test concentration not listed); in the data active = activation above about 40%; inconclusive = about 15% to 40%; inactive = below about 15%; further: compound concentration not given in the record; the text of the record calls up to 30% inactive
Target sequence (P14416 whole entry, looked up): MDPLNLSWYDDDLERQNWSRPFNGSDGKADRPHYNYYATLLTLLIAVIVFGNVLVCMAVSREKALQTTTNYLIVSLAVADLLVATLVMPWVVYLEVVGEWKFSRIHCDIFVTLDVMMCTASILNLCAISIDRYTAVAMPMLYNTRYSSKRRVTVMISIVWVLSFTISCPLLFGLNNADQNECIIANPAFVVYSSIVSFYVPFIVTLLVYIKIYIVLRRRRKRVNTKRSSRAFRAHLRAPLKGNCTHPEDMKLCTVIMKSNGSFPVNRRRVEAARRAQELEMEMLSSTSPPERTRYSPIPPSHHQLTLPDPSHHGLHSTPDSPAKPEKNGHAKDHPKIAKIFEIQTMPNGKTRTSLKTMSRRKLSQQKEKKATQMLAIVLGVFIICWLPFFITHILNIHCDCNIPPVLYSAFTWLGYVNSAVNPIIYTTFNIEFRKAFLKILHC
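DiscoveRx PathHunter D2 beta-arrestin cells (2,100/well) attached overnight, then compound-stimulated 90 min at 37 C in HBSS/10 mM HEPES/0.1% Tween-20 buffer; beta-galactosidase complementation read by luminescence after 1 h at ambient temperature. Dopamine 57 uM final (EC100) as control.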
TRPML1 agonist – qHTS for Agonists of the Human Mucolipin Transient Receptor Potential 1 (TRPML1); Mucolipin-1 (Homo sapiens), Q9GZU1; TRPML1-expressing cells, Ca2+ dye fluorescence, FDSS; host cell line not named in the record; reference of the full effect not given here; activation, % (concentration not given with the values); 0.12% of 410,000 active; in the data active = activation above about 50%; inconclusive = about 30% to 50%; inactive = below about 30%; further: 0% is about no effect; the text of the record puts the active cut at 80%
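TRPML1-DL cells, Tet-induced overnight (~16 h, 37 degrees C), loaded 45-90 min at room temperature with Ca8 no-wash calcium dye plus quencher. FDSS fluorescence: 10 s baseline, compound pin-transfer, 110 s agonist read, then EC80 54-4 (4uM final) and 110 s antagonist read.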
Six1-Eya2 inh – qHTS Assay for Inhibitors of the Six1/Eya2 Interaction; AlphaScreen GST-Six1/His-Eya2 binding, biochemical; hits give low values; control for the full effect not named in the record; 0.56% of 360,000 active; activity change, % (test concentration not listed); in the data active = activity change below about -65%; inconclusive = about -30% to -65%; inactive = above about -30%; further: on the % scale 0 is the no-effect control and ±100 the full control effect; compound concentration not given in the record
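AlphaScreen luminescence read after one hour at 37 °C in darkness. Pin-transferred compounds met GST-Six1 and His-Eya2 protein (5X stock 250 nM/500 nM) plus glutathione donor and Ni-chelate acceptor beads (5X, 50 ug/mL).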
Starred values were filed as active, the others as inactive; ? = inconclusive; / = not tested or not shown; & = joins results of further samples; [ ] = dose if it differs, or a comment.

SMILES | CtBP-E1A blk | TRPML1 blocker | PINK1 expr mod | D2 ag | TRPML1 agonist | Six1-Eya2 inh
Cc1ccc(-c2nn(-c3ccccn3)c(=O)c3ccccc23)cc1 | -22 | 23 | -0.7% | -2.2 | 2.2 | -3
CCOC(=O)c1c(/N=C/c2cccc(C)c2O)sc2c1CCN(C)C2 | -5 | 4 | ? | -5.7 | 0.6 | -15
O=C1c2oc3ccc(Br)cc3c(=O)c2C(c2cccc(F)c2)N1CCO (centres undefined) | 11 | -10 | 1.4% | 1.7 | -0.3 | -10
CC1CCCCN1C(=O)Cn1cc(C=O)c2ccccc21 (centres undefined) | 13 | -15 | -1.8% | -3.0 | -0.7 | 26
CC(C)(C)c1cc(NC(=O)c2c(F)cccc2Cl)n(-c2ccccc2)n1 | -19 | 9 | 3.4% | -2.0 | 0.0 | 7
CCCCC(c1nnnn1CC1CCCO1)N1CCN(c2ccccc2)CC1 (centres undefined) | / | 35 | 0.2% | -3.5 | 1.1 | 3
O=S(=O)(c1ccc(Br)cc1)c1cnc2ccccc2n1 | 1 | 11 | 2.1% | 1.4 | -0.5 | -2
CCn1c(SCc2cccc(Br)c2)nnc1-c1nonc1NC(C)=O | / | -3 | 1.4% | / | -0.4 | /
COc1ccc(NC(=O)NNC(=O)C(C)Oc2ccc3ccccc3c2)cc1 (centres undefined) | 1 | 7 | -0.5% | 1.2 | 0.3 | -5
Fc1ccc(Cl)cc1/C=N/n1cnnc1SCc1ccccc1 | -4 | -15 | 4.8% | 0.1 | 2.9 | 0
COc1ccc(NS(=O)(=O)c2cccc(C(=O)NNC(=O)CNC(=O)c3cccc(C)c3)c2)cc1 | 0 | 1 | -0.2% | -0.9 | -0.4 | -6
Cc1cc2c(cc1S(=O)(=O)Nc1ccc(F)cc1)n(C)c(=O)c(=O)n2C | 1 | 1 | -1.3% | -2.6 | 0.2 | -2
CC1(C(=O)NS(=O)(=O)C2CC2)CCCN(C(=O)c2cccs2)C1 (centres undefined) | 12 | / | -1.2% | -2.9 | -0.4 | 2
CCc1n(CC(O)COCc2ccccc2)c2ccccc2[n+]1C (centres undefined) | 3 | 4 | 1.2% | -4.2 | 3.7 | 3
Cc1ccccc1NC(=O)CSc1nc2ccc(Nc3nc(N4CCOCC4)nc(N4CCOCC4)n3)cc2s1 | 0 | -16 | ? | -2.8 | 2.1 | 1
Cc1cc(C)cc(OCC(=O)Nc2ccc(CN3CCCCC3)cc2)c1 | -9 | 18 | -0.3% | -3.0 | 0.3 | 8
Cc1ccc(-n2c(=O)c3c(C)c(C)sc3n(CC(=O)NCc3ccccc3)c2=O)cc1C | / | 25 | 4.3% | / | 2.5 | /
CCOCCCN(C(=O)Nc1ccc(CC)cc1)C1CCN(C(C)=O)CC1 | 4 | 0 | / | -2.5 | -0.6 | -1
c1ccc(N2CCN(Cc3nnc(-c4ccc5c(c4)OCO5)o3)CC2)cc1 | / | 19 | -1.0% | / | -0.6 | /
Oc1c(C(c2ccccc2Cl)N2CCC(O)CC2)sc2nc(-c3ccco3)nn12 (centres undefined) | / | 3 | -0.7% | / | 1.5 | /
COc1ccc(-n2nc(C(=O)NCC(=O)Nc3cc(OC)ccc3OC)c3ccccc3c2=O)cc1 | 7 | -4 | 1.9% | 6.7 | 0.1 | 34
CCCCOc1cccc(C(=O)N(Cc2ccccc2)C2CCS(=O)(=O)C2)c1 (centres undefined) | 16 | 72 | 2.1% | -4.0 | -0.1 | -1
Cc1nc2c(sc3nc4c(cc32)COC(C)(C)C4)c(=O)o1 | -1 | 0 | 1.5%[38.3 µM] | -2.3 | 0.2 | 0
CC(C)Sc1nc(N)c2c3c(sc2n1)CN(C)CC3 | -18 | -3 | 0.5% | -6.9 | 0.5 | -15
O=C(CN1C(=O)NC2(CCCC2)C1=O)NCCN1C(=O)S/C(=C\c2ccccc2F)C1=O | -2 | 10 | 0.3% | -1.4 | 0.1 | -1
CC1CCCN(c2ccc(F)cc2N)C1 (centres undefined) | -15 | -12 | 6.9% | -5.9 | -0.5 | -22
Nc1c(Cl)ncnc1N1CCCC1 | 0 | -3 | 1.4% | -0.6 | 0.2 | 1
COc1cccc(OC)c1C(=O)n1nc(C)cc1C | 2 | 19 | 0.3% | -0.7 | 0.3 | 11
O=C(NCC1(N2CCCCC2)CCCCC1)c1cccc(NS(=O)(=O)c2ccccc2)c1 | -4 | 12 | -1.6% | -4.6 | 0.3 | -7
Cc1cc(C)c(Cn2c3ccccc3c3cnn(CC(=O)N4CCCCC4)c(=O)c32)c(C)c1 | / | 16 | 0.9% | / | -0.5 | /

Record cards, from the list above. Values in the order: CtBP-E1A blk | TRPML1 blocker | PINK1 expr mod | D2 ag | TRPML1 agonist | Six1-Eya2 inh
Cc1ccccc1NC(=O)CSc1nc2ccc(Nc3nc(N4CCOCC4)nc(N4CCOCC4)n3)cc2s1 is listed as 0 | -16 | ? | -2.8 | 2.1 | 1
CC1(C(=O)NS(=O)(=O)C2CC2)CCCN(C(=O)c2cccs2)C1 (centres undefined) is listed as 12 | / | -1.2% | -2.9 | -0.4 | 2
CC1CCCN(c2ccc(F)cc2N)C1 (centres undefined) is listed as -15 | -12 | 6.9% | -5.9 | -0.5 | -22
O=C1c2oc3ccc(Br)cc3c(=O)c2C(c2cccc(F)c2)N1CCO (centres undefined) is listed as 11 | -10 | 1.4% | 1.7 | -0.3 | -10

Next section:
SMILES | CtBP-E1A blk | TRPML1 blocker | PINK1 expr mod | D2 ag | TRPML1 agonist | Six1-Eya2 inh
COc1ccc(NC(=O)CSCC(=O)Nc2ccc(S(=O)(=O)N3CCCCC3)cc2)cc1 | 7 | -2 | 2.1% | 2.7 | -0.4 | -3
Cc1cc(=O)c2c(C)nn(-c3ccccc3)c2[nH]1 | -1 | 13 | 1.0% | 1.6 | -0.3 | 0
Cn1c(=O)c(N)c2c3c(c(Br)ccc31)C(=O)c1ccccc1-2 | / | -20 | 6.0% | -2.3 | 27 | ?
COCC(=O)N(C)CC1CCCN(CCc2ccccc2OC)C1 (centres undefined) | -11 | -5 | -0.5% | -5.1 | 0.4 | 21
Cn1nnnc1SCC(=O)NC1CCCCC1 | 10 | 27 | -2.4% | -3.4 | 0.5 | 9
CC(C)c1ccc(NC(=O)CC2NCCNC2=O)cc1 (centres undefined) | / | -7 | 1.1% | / | 1.1 | /
CCOCCCNCc1ccc(OCC(=O)N2CCOCC2)c(OC)c1 | 6 | -15 | 1.9% | -0.9 | -0.3 | 10
O=C(Cn1cc([N+](=O)[O-])cn1)N1N=C(C(F)F)CC1(O)C(F)F (centres undefined) | 0 | 15 | -4.9%[38.3 µM] | -2.8 | 0.7 | 0
CC(=O)N1CCOc2ccc(S(=O)(=O)Nc3ncccc3C)cc21 | 3 | -13 | 1.2% | 0.9 | 0.0 | 2
O=C(Nc1ccc(Cl)cc1Cl)c1ccc(-c2ccccc2)cc1 | -18 | -9 | 0.3% | -6.0 | 0.0 | 24
Clc1ccccc1-c1nnn(Cc2ccc(-c3nn[nH]n3)cc2)n1 | -27 | 1 | -0.9% | -2.9 | -1.0 | ?
Cc1ccc2cc(CN(Cc3ccco3)C(=O)NCc3ccccc3)c(=O)[nH]c2c1C | -2 | -5 | -1.2% | -5.2 | 0.9 | -15
Cn1cc(S(=O)(=O)NCc2ccc3c(c2)OCO3)c(C(F)(F)F)n1 | 7 | 11 | 0.7% | 0.5 | 1.4 | -3
CCCCOC(=O)n1c(=O)oc2ccccc21 | -1 | -12 | 3.0% | 4.2 | 0.4 | 0
CSc1nc2c(c(=O)[nH]1)C(c1ccccc1)C1=C(CC(C)(C)CC1=O)N2 (centres undefined) | / | 10 | 15% | -1.2 | -0.6 | 10
O=C1c2ccccc2C(=O)N1CCSc1nnc(-c2ccco2)n1Cc1ccccc1 | 3 | -16 | -1.0%[38.3 µM] | -2.5 | 3.9 | -1
CCCCN(C(=O)CCC(=O)Nc1cc(C)on1)C(C(=O)NC(C)(C)CC)c1cccc(OC)c1OC (centres undefined) | 6 | 12 | 0.0% | -0.1 | 1.0 | 1
CCCCN(CC)CCNC(=O)c1cc2c(=O)oc3ccc(C)cc3c2s1 | / | 14 | 1.2% | / | -0.5 | /
CCC(C)Nc1nc(N)c([N+](=O)[O-])c(NCc2ccccc2)n1 (centres undefined) | / | 22 | 2.5% | -0.9 | 3.9 | -7
Cc1cc(SCC(=O)N2CCCC2)nc2ccccc12 | 8 | 4 | 0.4% | -1.0 | 1.3 | 0
O=S(=O)(NCC(c1ccco1)N1CCOCC1)c1cc(F)ccc1F (centres undefined) | / | -17 | 0.7% | / | -0.6 | /
COc1cc(C)nc(NCc2ccccc2)n1 | 5 | 0 | 2.5% | -2.3 | -1.1 | 8
COc1ccc(NC(=O)N2CCN(C(=O)C3CCCO3)CC2)cc1 (centres undefined) | 19 | -4 | 2.6% | 2.0 | 0.2 | 3
CCN(C(=O)CN(C)Cc1cccc(Cl)c1Cl)c1c(N)n(Cc2ccccc2)c(=O)[nH]c1=O | 5 | -15 | 3.4% | 7.5 | 0.7 | 4
COc1cc(NC(=O)c2ccc3c(SCC(=O)O)c4c(nc3c2)CCCC4)cc(OC)c1OC | / | 7 | -0.3% | -4.9 | -0.3 | -14
Cc1cc2[nH]c(=S)[nH]c2cc1C | -18 | -7 | -1.6% | -0.5 | 4.1 | -5
CCc1nc2cc(NC(=O)C3(C)CCCN(C(C)C)C3)ccc2o1 (centres undefined) | -4 | / | -0.4% | -4.2 | -0.4 | -7
CCOc1nc(-c2ccccc2Cl)ccc1C#N | 52 | -2 | -3.0%[38.3 µM] | -2.9 | 3.5 | 39
Cc1cc(C)cc(OCC(=O)NCC2(N3CCOCC3)CCCCC2)c1 | / | -23 | 1.8% | / | 0.4 | /
COc1ccccc1N1CCN(C(=O)c2cccc(N3C(=O)C4C5C=CC(C5)C4C3=O)c2)CC1 (centres undefined) | 10 | 0 | 1.5% | 0.4 | -0.6 | 2
Cc1noc(C)c1C(=O)Nc1sc(C)c(C)c1C#N | 2 | ? | 16%[38.3 µM] | -1.8 | 2.7 | -7
Cn1c(=O)[nH]c2ncn(C)c2c1=O | 4 | 6 | -0.3%&0.3% | -1.4 | -0.3 | 1
O=C(COc1ccccc1F)NCc1nc2ccccc2[nH]1 | 6 | 5 | 3.3% | -2.8 | -0.2 | 0

Source: PubChem BioAssay
